Vaccinia inh = blocks a specific stage of Vaccinia orthopoxvirus infection; actives 0.01% (n = 89,000); activity change (mCherry), % (no concentration beside the values); Vaccinia-infected cells, mCherry/Venus stage reporter fluorescence; active compounds read low; some inactives read as strong as hits;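 active means mCherry past -33% and 40 or more points under the early reporter, replicates agreeing; inconclusive means past -33% without that gap or agreement; tested in A549 cells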;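 further: scaled between vehicle wells and reference inhibitor wells; 23 nL library stock went into each well; one replicate is shown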
Vaccinia inh Venus = also measured in Vaccinia inh; calls as there; activity change (Venus), %; measured here: Venus reporter, other viral stage;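 negative = less Venus signal; first of two replicates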
An asterisk follows results filed as active; ? = inconclusive; nt = no result given; & = joins results of further samples.

Start of the data: the first 3 records as a preview:
Compound	Vaccinia inh	Vaccinia inh Venus
Cc1ccccc1-c1ccc([C@@H]2[C@@H](CO)N3CCCCN(C(=O)CN4CCOCC4)C[C@@H]23)cc1	7	-2
CC=Cc1ccc2n(c1=O)C[C@H]1[C@H](CO)[C@@H](C(=O)NCc3ccc(F)cc3)N(C)[C@@H]21 (mixture of isomers)	-1	14
C[C@H](CO)N1C[C@H](C)[C@H](CN(C)C(=O)Nc2ccccc2)Oc2ccc(NS(=O)(=O)c3ccc(Cl)cc3)cc2CC1=O	-2	-1

All compounds of this part, previewed entries included:
Compound	Vaccinia inh	Vaccinia inh Venus
Cc1ccccc1-c1ccc([C@@H]2[C@@H](CO)N3CCCCN(C(=O)CN4CCOCC4)C[C@@H]23)cc1	7	-2
CC=Cc1ccc2n(c1=O)C[C@H]1[C@H](CO)[C@@H](C(=O)NCc3ccc(F)cc3)N(C)[C@@H]21 (mixture of isomers)	-1	14
C[C@H](CO)N1C[C@H](C)[C@H](CN(C)C(=O)Nc2ccccc2)Oc2ccc(NS(=O)(=O)c3ccc(Cl)cc3)cc2CC1=O	-2	-1
Cc1ccc(S(=O)(=O)Nc2ccc3c(c2)C(=O)N([C@@H](C)CO)C[C@H](C)[C@@H](CN(C)S(=O)(=O)c2ccccc2)O3)cc1	5	-3
COc1ccc(S(=O)(=O)N(C)C[C@H]2Oc3c(NC(=O)NC4CCCCC4)cccc3C(=O)N([C@@H](C)CO)C[C@H]2C)cc1	-7	-9
O=C(CN1CCOCC1)NCC[C@@H]1CC[C@H](NC(=O)Cc2ccccn2)[C@@H](CO)O1	2	5
OC[C@@H]1[C@@H](c2ccccc2)C2(CN(CCC(F)(F)F)C2)N1Cc1ccccc1	-7	1
C[C@H](O)C#Cc1ccc([C@H]2[C@@H](CO)N3CCCCN(S(=O)(=O)c4ccccc4)C[C@@H]23)cc1	-3	-9
CO[C@H]1CN(C)C(=O)c2ccc(NC(=O)Nc3cc(F)ccc3F)cc2OC[C@H](C)NC[C@H]1C	-27	-15
O=S(=O)(c1ccc(Cl)cc1)N1[C@@H]2CNC[C@H]1C2c1ccc(-c2cccc(F)c2)cc1 (some centres undefined)	-5	10
C[C@H](CO)N1C[C@H](C)[C@H](CN(C)S(=O)(=O)c2ccc(F)cc2)Oc2ccc(NS(=O)(=O)c3cn(C)cn3)cc2C1=O	7	4
CO[C@H]1CN(C)C(=O)c2cc(NC(=O)c3cccc(F)c3)ccc2OC[C@H](C)N(CC2CC2)C[C@H]1C	-12	-14
CCC(=O)N[C@H]1CC[C@H](CC(=O)NCC2CC2)O[C@@H]1CO	18	6
CC(C)NC(=O)N1C[C@@H]2[C@H](c3ccccc31)[C@@H](CO)N2C(=O)Nc1cccc(F)c1	8	6
COc1ccc(NC(=O)Nc2cccc3c2O[C@@H](CN(C)S(=O)(=O)c2ccc(C)cc2)[C@@H](C)CN([C@H](C)CO)C3=O)cc1	-27	-23
C[C@@H]1CN([C@H](C)CO)C(=O)c2cc(NC(=O)Nc3ccc(F)cc3)ccc2O[C@H]1CN(C)Cc1ccc(Cl)c(Cl)c1	-7	0
COc1ccc2c3c(n(C)c2c1)[C@H](CO)N(C(=O)C1CCOCC1)CC31CN(C(=O)C2CC2)C1	-3	0
COCCNC(=O)C[C@H]1CC[C@H]2[C@H](COc3ccc(NC(=O)c4cc(C)on4)cc3C(=O)N2C)O1	-2	-5
COc1ccc(S(=O)(=O)Nc2ccc3c(c2)C(=O)N([C@@H](C)CO)C[C@@H](C)[C@H](CN(C)S(=O)(=O)c2cn(C)cn2)O3)cc1	10	5
COc1cccc(S(=O)(=O)Nc2ccc3c(c2)[C@@H]2C[C@@H](CC(=O)N4CCCCC4)O[C@H](CO)[C@@H]2O3)c1	5	-2
CC=Cc1ccc2n(c1=O)C[C@H]1[C@H](CO)[C@@H](C(=O)N(C)C)[C@@H]2N1CC1CC1 (mixture of isomers)	10	7
CCCNC(=O)N1CCC2(CC1)CN(Cc1cccc(OC)c1)[C@@H](CO)c1[nH]c3cc(OC)ccc3c12	22	17
C[C@H]1CN([C@@H](C)CO)C(=O)c2cc(NS(C)(=O)=O)ccc2O[C@@H]1CN(C)Cc1ccc(-c2ccccc2)cc1	10	5
COc1ccc(NC(=O)Nc2ccc3c(c2)C(=O)N([C@H](C)CO)C[C@@H](C)[C@H](CN(C)S(=O)(=O)c2cccs2)OCCCC[C@@H](C)O3)cc1	-17	0
CC(C)NC(=O)N(C)C[C@H]1Oc2c(NS(=O)(=O)c3ccc(Cl)cc3)cccc2C(=O)N([C@@H](C)CO)C[C@H]1C	5	0

3 entries drawn at random from the list so far:
Compound	Vaccinia inh	Vaccinia inh Venus
COc1cccc(S(=O)(=O)Nc2ccc3c(c2)[C@@H]2C[C@@H](CC(=O)N4CCCCC4)O[C@H](CO)[C@@H]2O3)c1	5	-2
COc1ccc(NC(=O)Nc2cccc3c2O[C@@H](CN(C)S(=O)(=O)c2ccc(C)cc2)[C@@H](C)CN([C@H](C)CO)C3=O)cc1	-27	-23
OC[C@@H]1[C@@H](c2ccccc2)C2(CN(CCC(F)(F)F)C2)N1Cc1ccccc1	-7	1

The listing continues.
Compound	Vaccinia inh	Vaccinia inh Venus
C[C@H](CO)N1C[C@H](C)[C@@H](CN(C)C(=O)c2cc(-c3ccccc3)on2)OCc2cnnn2CCCC1=O	-3	-5
COc1ccc(NC(=O)Nc2ccc3c(c2)[C@H]2C[C@H](CC(=O)NC4CCCC4)O[C@@H](CO)[C@H]2O3)cc1	7	8
CCCC(=O)Nc1ccc2c(c1)C(=O)N(C)[C@H]1CC[C@@H](CC(=O)NCc3ccccc3Cl)O[C@@H]1CO2	-8	-8
C[C@@H]1CCCCO[C@@H](CN(C)C)[C@@H](C)CN([C@@H](C)CO)C(=O)c2cc(NS(=O)(=O)c3ccc(F)cc3)ccc2O1	0	4
N#C[C@H]1[C@H](c2ccc(C#Cc3ccccc3F)cc2)[C@@H](CO)N1C(=O)C1CC1	-12	-3
O=C(C[C@H]1CC[C@@H]2[C@H](COC[C@H](O)CN2CCC(F)(F)F)O1)N1CCC(Cc2ccccc2)CC1	-22	-16
CC(C)(O)c1cn([C@@H]2C[C@@H]3O[C@H](CO)CC[C@@H]3O[C@@H]2CCc2ccc(-c3cccnc3)cc2)nn1	16	1
CCN1[C@@H]2c3ccc(-c4cccc(F)c4)c(=O)n3C[C@H]1[C@H](CO)[C@H]2C(=O)NCC1CC1	16	5
O=C(C1=C[C@@H](c2ccc(Br)cc2)C[C@@H](OCc2ccc(CO)cc2)O1)N1CCN(Cc2ccccc2)CC1	-8	-8
CO[C@@H](CN(C)Cc1ccc(-c2ccccn2)cc1)[C@H](C)CN(C(=O)Nc1ccc(F)cc1)[C@@H](C)CO	-2	-8
C[C@@H]1CCCCO[C@H](CN(C)C(=O)Nc2ccc(F)cc2)[C@H](C)CN([C@@H](C)CO)C(=O)c2cc(NC(=O)Nc3ccc(F)cc3)ccc2O1	-3	1
N#C[C@@H]1[C@H](c2ccc(C3=CCCCC3)cc2)[C@@H](CO)N1C(=O)NC1CCCC1	-30	-23
C[C@@H]1CN([C@@H](C)CO)C(=O)c2cc(NC(=O)Cc3ccccc3)ccc2O[C@@H](C)CCCCO[C@@H]1CN(C)C(=O)Nc1cccc2ccccc12	16	19
O=C(c1cccc(F)c1)N1CC2(C1)[C@H](c1ccccc1)[C@@H](CO)N2C(=O)C1CC1	-8	-18
COc1ccc(S(=O)(=O)Nc2ccc3c(c2)C(=O)N([C@H](C)CO)C[C@@H](C)[C@H](CN(C)S(=O)(=O)c2ccc(F)cc2)OCCCC[C@H](C)O3)cc1	-17	-16
CC(C)c1cn(CC[C@H]2CC[C@H](NC(=O)C3CC3)[C@H](CO)O2)nn1	0	8
O=C(C[C@H]1CC[C@@H]2[C@H](COC[C@H](O)CN2C(=O)c2ccccc2F)O1)N1CCOCC1	-2	4
Cc1noc(C)c1NC(=O)N(C)C[C@@H]1OCCCC[C@@H](C)Oc2ccc(NC(=O)Cc3ccccc3)cc2C(=O)N([C@@H](C)CO)C[C@H]1C	19	14
C[C@H](CO)N1C[C@H](C)[C@H](CN(C)S(C)(=O)=O)Oc2ncc(C#Cc3ccccc3F)cc2C1=O	21	7
COc1cccc(CN(C)C[C@H]2OCc3cnnn3CCCC(=O)N([C@@H](C)CO)C[C@@H]2C)c1	21	18
CCS(=O)(=O)N1CCCCN2[C@H](C1)[C@@H](c1ccc(-c3ccccc3)cc1)[C@@H]2CO	18	14
CC(=O)NC[C@@H]1[C@@H](c2ccc(-c3ccccc3F)cc2)[C@@H](CO)N1CCC(F)(F)F	-10	3
CC(C)NC(=O)N(C)C[C@@H]1Oc2ccc(NS(=O)(=O)c3cccs3)cc2CC(=O)N([C@@H](C)CO)C[C@@H]1C	12	22
C[C@@H]1CN([C@@H](C)CO)C(=O)c2cc(C#C[C@@H](C)O)cnc2O[C@H]1CN(C)Cc1ccc(-c2ccccc2)cc1	?	nt
O=C(C1CC1)N1CC(=O)N2[C@H](CO)[C@@H](c3ccc(Br)cc3)[C@H]2C1	5	4

The list goes on:
Fields – Vaccinia inh, Vaccinia inh Venus
CCC(=O)Nc1ccc2c(c1)OC[C@@H](C)N(C(=O)Nc1ccccc1F)C[C@@H](C)[C@H](OC)CN(C)C2=O
 : 4, 7
CCc1cnc(N2[C@@H](C#N)[C@@H](c3ccc(C#CCC4CCCC4)cc3)[C@@H]2CO)s1
 : ?, nt
CC(=O)N[C@H]1CC[C@@H](CCNC(=O)C2CCCC2)O[C@@H]1CO
 : -7, 13
O=C(C[C@H]1C[C@H]2c3cc(NC(=O)CC4CC4)ccc3O[C@H]2[C@H](CO)O1)NCc1ccc2c(c1)OCO2
 : 1, -1
C[C@@H]1CN([C@H](C)CO)C(=O)Cc2cc(NS(=O)(=O)c3ccc(F)cc3)ccc2O[C@H]1CN(C)S(=O)(=O)c1ccc(F)cc1
 : 13, 10
C[C@@H]1CN([C@H](C)CO)C(=O)Cc2cc(NC(=O)Nc3ccc4c(c3)OCO4)ccc2O[C@@H]1CN(C)Cc1ccc(C(F)(F)F)cc1
 : ?, nt
CO[C@@H]1CN(C)C(=O)c2cc(NC(=O)c3ccccc3)ccc2OC[C@H](C)NC[C@@H]1C
 : 0, 6
O=C(NCc1ccccc1)C1=C[C@@H](c2ccc3c(c2)OCO3)C[C@@H](OCc2ccc(CO)cc2)O1
 : 7&17, 7&13
CO[C@H]1CN(C)C(=O)c2cccc(C#N)c2OCC[C@H]2CC[C@@H](OC)[C@@H](CN(C)C(=O)[C@@H]1C)O2
 : 22, 21
CN1C(=O)c2cc(NC(=O)c3ccc(Cl)cc3)ccc2OC[C@@H]2O[C@H](CC(=O)NCc3cccc(F)c3)CC[C@@H]21
 : ?, nt

Whole records from above:
`O=C(NCc1ccccc1)C1=C[C@@H](c2ccc3c(c2)OCO3)C[C@@H](OCc2ccc(CO)cc2)O1` reads Vaccinia inh = 7&17; Vaccinia inh Venus = 7&13
`CO[C@@H]1CN(C)C(=O)c2cc(NC(=O)c3ccccc3)ccc2OC[C@H](C)NC[C@@H]1C` reads Vaccinia inh = 0; Vaccinia inh Venus = 6
`CN1C(=O)c2cc(NC(=O)c3ccc(Cl)cc3)ccc2OC[C@@H]2O[C@H](CC(=O)NCc3cccc(F)c3)CC[C@@H]21` reads Vaccinia inh = ?; Vaccinia inh Venus = nt

More structures
Fields – Vaccinia inh, Vaccinia inh Venus
O=C(N[C@H]1C[C@@H]2O[C@H](CO)CC[C@@H]2O[C@@H]1CCc1ccc(-c2cccnc2)cc1)c1cccc(F)c1
 : 1, -1
COC(=O)[C@H]1[C@H](CO)[C@H]2Cn3c(ccc(-c4ccc(F)cc4)c3=O)[C@@H]1N2C(C)=O
 : 4, 4
Cc1ccccc1-c1ccc2c(c1)O[C@H](CN(C)C(=O)C1CC1)[C@H](C)CN([C@H](C)CO)S2(=O)=O
 : -16, -14
C[C@@H]1CN([C@@H](C)CO)C(=O)c2cc(NC(=O)Nc3cccc4ccccc34)ccc2O[C@H]1CN(C)S(=O)(=O)c1cn(C)cn1
 : 24, 8
COCC(=O)Nc1ccc2c(c1)OC[C@H](C)N(Cc1ccncc1)C[C@H](C)[C@H](OC)CN(C)C2=O
 : -4, -5
O=C(Nc1ccc2c(c1)[C@@H]1C[C@H](CC(=O)N3CCc4ccccc4C3)O[C@H](CO)[C@@H]1O2)C1CCOCC1
 : 7, 10
CNC[C@H]1Oc2cc(C#CC3(O)CCCC3)ccc2S(=O)(=O)N([C@H](C)CO)C[C@@H]1C
 : 2, -1
CCCNC(=O)C[C@@H]1C[C@H]2c3cc(NC(=O)NC4CCCC4)ccc3O[C@H]2[C@@H](CO)O1
 : 3, 3
C[C@H]1CN([C@@H](C)CO)S(=O)(=O)c2ccc(-c3cncnc3)cc2O[C@H]1CN(C)C(=O)c1ccc2c(c1)OCO2
 : 38, 19
COc1ccc(CN(C)C[C@H]2Oc3ccc(NC(=O)Nc4ccc5c(c4)OCO5)cc3C(=O)N([C@@H](C)CO)C[C@@H]2C)cc1
 : 3, 2
COc1ccc(S(=O)(=O)Nc2ccc3c(c2)C(=O)N([C@@H](C)CO)C[C@H](C)[C@H](CN(C)C(=O)CCCN(C)C)OCCCC[C@@H](C)O3)cc1
 : 6, 2
Cc1noc(C)c1NC(=O)N(C)C[C@@H]1Oc2ccc(NC(=O)Nc3ccc(F)cc3)cc2C(=O)N([C@H](C)CO)C[C@H]1C
 : -2, 12
COc1ccccc1-c1ccc([C@H]2[C@@H](CO)N(C(=O)C3CCC3)[C@H]2C#N)cc1
 : -2, -4

This is a subset; rates above refer to the full screens.
